Screens as filed in PubChem.
TRPML1 ag = qHTS for Agonists of the Human Mucolipin Transient Receptor Potential 1 (TRPML1). Mucolipin-1 (Homo sapiens), Q9GZU1. activation, % (concentration not given with the values). AID 624414, 2012. 410,000 compounds, 0.12% hits. TRPML1-expressing cells, Ca2+ dye fluorescence, FDSS; host cell line not named in the record; reference of the full effect not given here; in the data active = activation above about 50%; inconclusive = about 30% to 50%; inactive = below about 30%; also: 0% is about no effect; the text of the record puts the active cut at 80%
Target sequence (Q9GZU1 whole entry, looked up): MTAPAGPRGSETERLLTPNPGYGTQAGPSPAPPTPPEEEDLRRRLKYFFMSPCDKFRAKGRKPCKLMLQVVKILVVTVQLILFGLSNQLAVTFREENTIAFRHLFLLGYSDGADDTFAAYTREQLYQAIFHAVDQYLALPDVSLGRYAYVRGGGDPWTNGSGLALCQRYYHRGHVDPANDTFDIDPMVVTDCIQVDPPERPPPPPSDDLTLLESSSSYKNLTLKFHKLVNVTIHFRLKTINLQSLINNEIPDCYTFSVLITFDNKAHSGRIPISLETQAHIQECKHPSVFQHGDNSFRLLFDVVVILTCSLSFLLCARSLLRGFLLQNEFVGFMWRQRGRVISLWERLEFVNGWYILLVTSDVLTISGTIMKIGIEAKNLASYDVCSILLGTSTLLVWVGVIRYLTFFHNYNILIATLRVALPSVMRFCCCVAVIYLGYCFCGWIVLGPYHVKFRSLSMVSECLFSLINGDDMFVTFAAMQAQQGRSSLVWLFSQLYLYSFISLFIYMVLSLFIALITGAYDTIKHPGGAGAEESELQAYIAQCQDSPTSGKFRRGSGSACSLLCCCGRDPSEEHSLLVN
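Tetracycline-induced TRPML1-DL cells are seeded and incubated overnight before loading with a no-wash Ca2+ dye and quencher. Agonist activity is taken from the 110 s fluorescence read following compound pin-transfer on an FDSS, before EC80 54-4 challenge.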
TRPV1 PAM = HTS Assay for Compounds that Act as Potentiators of the Vanilloid Receptor 1; TRPV1-expressing cells, Fluo-8 calcium influx, capsaicin EC20 potentiation; host cell line not named in the record; control for the full effect not named in the record; potentiation, % at 8.33 µM; 320,000 compounds, 0.02% hits; active means potentiation above 80%; inconclusive means 30% to 80%; inactive means below 30%; also: 0% is about no effect
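Cells expressing TRPV1 were dye-loaded with Fluo-8 and read kinetically: 10 s baseline, 3 min after compound (agonist portion), then 2 min after EC20 capsaicin (allosteric enhancer portion). Calcium-bound dye fluorescence at 480/520 nm.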
TRPML1 blocker = qHTS for Inhibitors of the Human Mucolipin Transient Receptor Potential 1 (TRPML1). AID 624415, 2012. activity change, negative = inhibition, % (no concentration beside the values). TRPML1-inducible cells, Ca2+ dye fluorescence, FDSS; active compounds read low; inhibition of EC80 agonist-evoked calcium signal. 390,000 compounds, 0.02% hits. Mucolipin-1 (Homo sapiens), Q9GZU1; in the data active means activity change below about -50%; inconclusive means about -30% to -50%; inactive means above about -30%;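 also: stimulus is agonist 54-4 at its EC80 concentration; % is scaled to controls: 0 for no effect and ±100 for the full control effect; compound concentration not given in the record; the text of the record puts the active cut at -80%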
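Calcium fluorescence in TRPML1-DL cells induced overnight with Tet: a 110 s read after compound pin addition, then a 110 s antagonist read after challenge with 54-4 at 4 uM final (EC80).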
CtBP-E1A inh = qHTS Assay for Inhibitors of the CtBP/E1A Interaction; CtBP / adenovirus E1A interaction (AlphaScreen); AlphaScreen GST-E1A/His-CtBP binding, 1536-well; active compounds read low; control for the full effect not named in the record; activity change, % (no concentration beside the values); 340,000 compounds, 0.49% hits; AID 651724, 2012; in the data active means activity change below about -65%; inconclusive means about -30% to -65%; inactive means above about -30%; also: % is scaled to controls: 0 for no effect and ±100 for the full control effect
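Protein mix (5X: 125 nM each GST-E1A, His-CtBP) was incubated with pinned compound 2 h at 37 deg C in dark, in 50 mM Tris pH 8.0 buffer with 300 mM NaCl. Glutathione donor and nickel acceptor beads followed; AlphaScreen signal read after 1 h.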
Six1-Eya2 blk = qHTS Assay for Inhibitors of the Six1/Eya2 Interaction; AID 651725, 2012; activity change, % (test concentration not listed); AlphaScreen GST-Six1/His-Eya2 binding, biochemical; active compounds read low; control for the full effect not named in the record; Homeobox protein SIX1 (Homo sapiens) + Protein phosphatase EYA2 (Homo sapiens), …; 360,000 compounds, 0.56% hits; in the data active = activity change below about -65%; inconclusive = about -30% to -65%; inactive = above about -30%; also: % is scaled to controls: 0 for no effect and ±100 for the full control effect
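Homogeneous AlphaScreen proximity assay pairing GST-Six1 with His-tagged Eya2 (added as 5X mix: 250 nM and 500 nM) in 50 mM Tris pH 8.0, 300 mM NaCl, 1 mM TCEP. Glutathione donor and nickel acceptor beads; 1 h, 37 °C, dark.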
D2 potentiator = Beta-Arrestin HTS for Positive Allosteric Modulators of the Human D2 Dopamine Receptor: Potentiators; D(2) dopamine receptor (Homo sapiens), P14416; DiscoveRx D2 beta-arrestin cells, luminescence, 90 min; 100% = 57 uM dopamine signal; potentiation, % (test concentration not listed); 360,000 compounds, 0.23% hits; active = potentiation of 50% or more; inconclusive = 30% to 50%; inactive = 30% or less;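 also: compound concentration not given in the record; tested on top of an EC20 dose of dopamine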
Target sequence (P14416 whole entry, looked up): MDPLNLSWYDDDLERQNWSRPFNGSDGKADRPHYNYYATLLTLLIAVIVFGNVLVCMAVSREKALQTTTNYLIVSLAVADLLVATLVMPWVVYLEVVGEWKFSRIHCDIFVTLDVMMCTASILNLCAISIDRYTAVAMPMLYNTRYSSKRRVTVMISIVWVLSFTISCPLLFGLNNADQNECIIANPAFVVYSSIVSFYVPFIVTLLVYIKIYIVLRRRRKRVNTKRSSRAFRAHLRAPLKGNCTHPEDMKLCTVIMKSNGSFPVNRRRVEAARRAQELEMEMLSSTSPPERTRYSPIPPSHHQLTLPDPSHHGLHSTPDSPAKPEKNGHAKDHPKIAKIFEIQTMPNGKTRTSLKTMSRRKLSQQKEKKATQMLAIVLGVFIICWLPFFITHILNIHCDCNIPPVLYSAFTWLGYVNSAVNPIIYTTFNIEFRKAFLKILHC
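PathHunter D2 cells, attached overnight at 37 deg C, received compound in DMSO plus dopamine at EC20 (50 nM final) for 90 min at 37 deg C. Beta-arrestin recruitment was read as luminescence after 1 h with detection reagent at ambient temperature.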
* hit, by the source's call; ? = inconclusive; . = not tested or not shown; & = joins results of further samples.

Abbreviations: A = TRPML1 ag; B = TRPV1 PAM; C = TRPML1 blocker; D = CtBP-E1A inh; E = Six1-Eya2 blk; F = D2 potentiator
> COc1ccc(Cl)cc1NC(=O)CN(C)C(=O)c1cc2c(F)cccc2s1
  A: 0.1	B: 5	C: -2	D: .	E: -6	F: -8

> CC1(C)CC(=O)C=C(c2ccc3[nH]ccc3c2)C1
  A: -0.4	B: .	C: -1	D: 2	E: -10	F: -9

> O=C(c1cc(S(=O)(=O)N2CCOCC2)ccc1F)N1CCc2ccccc21
  A: -0.2	B: .	C: -4	D: -24	E: -4	F: -5

> O=C(CCCN=C1NS(=O)(=O)c2ccccc21)OCc1ccc(F)cc1
  A: 0.1	B: -6	C: 2	D: -6	E: 9	F: 14

> O=C(COC(=O)c1ccco1)NCc1ccccc1Cl
  A: 0.1	B: 22	C: -25	D: 2	E: -3	F: -16

> CC[N+]1(C)CCC(O)(/C=C/c2ccccc2)C(C(=O)/C=C/c2ccccc2)C1 (stereo not drawn)
  A: 3.8	B: .	C: 7	D: 12	E: -12	F: -19

> Cc1ccc(NS(=O)(=O)c2ccccc2)c2c1CC(C)(C)O2
  A: 0.8	B: 20	C: -12	D: 4	E: 2	F: -11

> COc1ccc(-n2nc(C(=O)NCC(=O)NCCCN3CCOCC3)c3ccccc3c2=O)cc1OC
  A: -0.5	B: -4	C: 5	D: 6	E: -7	F: -2

> CCCSc1ccc([C@H]2N[C@@](C)(C(=O)OC)[C@H]3C(=O)N(CC)C(=O)[C@@H]23)cc1
  A: 0.3	B: .	C: -10	D: .	E: 9	F: -14

> COc1ccc(N2CCN(c3c(S(=O)(=O)c4ccccc4)cnc4ccc(OC)cc34)CC2)cc1
  A: 0.0	B: 16	C: 21	D: ?	E: ?	F: -22

> COc1ccc(NS(=O)(=O)c2cc(NC(=O)c3ccc(F)cc3)ccc2OC)cc1
  A: 0.4	B: 11	C: 24	D: -12	E: -18	F: 9

> CC1(C)CC(=O)C(C=Nc2ccccc2)=C(O)C1
  A: -0.4	B: -25	C: 2	D: 6	E: 6	F: -3

> CCC(OC(=O)c1cccs1)C(=O)NCc1ccc2c(c1)OCO2 (stereo not drawn)
  A: 4.8	B: 2	C: -8	D: -2	E: 3	F: 11

> Cc1cccc(NC(=O)CN2CCN(C(=O)c3cc(C4CC4)nn3-c3ccccc3)CC2)c1C
  A: 0.0	B: .	C: -3	D: 0	E: 14	F: -12

> Cc1nn(CCCC(=O)Nc2nccs2)c(C)c1[N+](=O)[O-]
  A: 1.4	B: 3	C: 6	D: -3	E: -6	F: 0

> Cc1ccc(CNC(=O)CCCN2C(=S)NC(C)(C)CC2C)cc1 (stereo not drawn)
  A: 0.1	B: 2	C: 5	D: 2	E: -2	F: -6

> CCN(CC)C(=O)CSc1nc(O)c(Cc2ccccc2)c(=O)n1-c1ccccc1
  A: 0.2	B: -3	C: 4	D: 4	E: 2	F: -5

> CC(NC(=O)C1CCCN(C(=O)N(C)C)C1)c1ccccc1 (stereo not drawn)
  A: -0.4	B: 3	C: 12	D: 5	E: 1	F: -4

> O=C(Cn1cnc2ccccc21)Nc1ccc2c(c1)OCCCO2
  A: -0.6	B: 0	C: -1	D: 0	E: 20	F: 1

> COC(=O)c1[nH]c2ccc(F)cc2c1NC(=O)CCN1CC(C)OC(C)C1 (stereo not drawn)
  A: -0.4	B: -3	C: 13	D: 6	E: 1	F: -6

> COc1ccc2c(c1)c(C(C)=O)c(C)n2-c1ccccc1OC
  A: 3.5	B: .	C: 12	D: -1	E: 1	F: -6

> O=C(COC(=O)CNC(=O)c1ccc(Cl)cc1Cl)NNC(=O)c1ccccc1F
  A: 0.1	B: .	C: 13	D: -3	E: 0	F: -23

> CC(C)S(=O)(=O)c1csc(C(=O)NNC(=O)Nc2ccccc2)c1Cl
  A: -0.7	B: -2	C: 0	D: 27	E: 4	F: -20

> COc1ccc(-c2cc(CCCC(=O)NCCc3ccc(OC)cc3OC)no2)cc1
  A: 3.9	B: 0	C: 38	D: -4	E: -3	F: 0

> CCOc1ccc(NC(=S)C(C#N)=C2N(C)c3ccccc3N2C)cc1
  A: 1.6	B: 3	C: ?	D: -1	E: 2	F: 0

> Cc1ccc(S(=O)(=O)n2nc(-c3ccc(Cl)cc3)nc2NCc2ccco2)cc1
  A: 3.9	B: -1	C: 48	D: -1	E: -8	F: -2

> CC(=O)NC(Cc1ccccc1)C(=O)N1CCN(C(=S)NCC(C)C)CC1 (stereo not drawn)
  A: 0.2	B: 21	C: 15	D: 8	E: 5	F: -7

> N#Cc1nc(-c2cccc3ccccc23)oc1NCCN1CCCCC1
  A: 0.1	B: -15	C: -4	D: -5	E: -1	F: -22

> Cc1cc(C)cc(Nc2cc(C)nc3nc(C)nn23)c1
  A: 0.1	B: -18	C: -7	D: -1	E: -5	F: 0

> COc1cc(C2C(C(=O)c3ccc(C)o3)=C(O)C(=O)N2Cc2cccnc2)ccc1O (stereo not drawn)
  A: -0.4	B: -8&-2	C: 3	D: 11	E: 0	F: 5

> Cc1ccc(-c2nnc3sc(C4COc5ccccc5O4)nn23)cc1 (stereo not drawn)
  A: 0.4	B: -26	C: -12	D: 7	E: 5	F: -4

> CC(=O)C[C@H](O)CC(=O)[C@@H]1OC(=O)[C@@H](C)C/C=C\Cc2ccccc21
  A: -0.3	B: .	C: 4	D: 2	E: 6	F: 1

> C/C(=N\NC(=O)C1(C)CC1(Br)Br)c1cccc(NC(=O)C2CCC2)c1 (stereo not drawn)
  A: -0.1	B: -10	C: 1	D: -9	E: 9	F: 2

> O=CNC(Cc1ccccc1)C(=O)O (stereo not drawn)
  A: 0.3	B: -2	C: 19	D: 2	E: 9	F: 2

> CC(=O)c1cccc(CN2CCN(C3CCCC3)C(CCO)C2)c1 (stereo not drawn)
  A: -0.6	B: 9	C: -7	D: .	E: 3	F: -28

> CCOC(=O)N1CCN(C(=O)C2CCN(S(=O)(=O)c3cc(Cl)ccc3OCC)CC2)CC1
  A: -0.2	B: 3	C: -5	D: 2	E: 6	F: -11

> COc1ccc(C(=O)CSc2nnc(-c3ccco3)o2)cc1
  A: -0.6	B: 5	C: -4	D: 5	E: 3	F: -2

> Cc1ccc(S(=O)(=O)Nc2ncc(C(F)(F)F)cc2Cl)cc1
  A: 0.3	B: 6	C: -9	D: -9	E: -5	F: -8

> CCCNC(=O)C1(C)CCN(C(=O)/C=C/c2ccccc2)C1 (stereo not drawn)
  A: -0.7	B: .	C: .	D: 5	E: 2	F: -1

> CCCC(C)NC(=O)c1c2c(nc3ccccc13)CCC2 (stereo not drawn)
  A: -0.9	B: -5	C: 1	D: -5	E: 0	F: -4

> CCOc1ccc(NC(=O)CSc2ncc(-c3ccc(F)cc3)n2Cc2ccco2)cc1
  A: .	B: -7	C: .	D: 0	E: -20	F: -10

> Cn1cc(CN2CCC(n3nccc3NC(=O)c3ccccc3Cl)CC2)c2ccccc21
  A: -0.4	B: 9	C: -4	D: 0	E: -24	F: -37

> Cc1noc(C)c1-c1ccc(C(=O)NCc2ccco2)c2occc12
  A: -1.0	B: .	C: .	D: -20	E: ?	F: -3

> O=C(OCCOc1ccc(F)cc1)c1ccc(S(=O)(=O)N2CCCC2)cc1
  A: 3.9	B: 5	C: 66	D: .	E: 29	F: -6

> O=C(NCCCN1CCCCC1)c1ccc(CS(=O)c2ccc(Cl)cc2)o1 (stereo not drawn)
  A: -0.7	B: 9	C: 14	D: -3	E: 7	F: -22

> CC(C)N1C(=O)C2C(C(=O)NC3CCCCC3)C3C=CC2(O3)C1C(=O)NC1CCCCC1 (stereo not drawn)
  A: 0.1	B: 15	C: 0	D: 3	E: -1	F: -8

> CN(CC(=O)O/N=C(\N)c1ccc(Br)cc1)S(=O)(=O)c1ccccc1
  A: 3.5	B: 8	C: 62	D: 8	E: 4	F: -6

> O=C(NCCc1ccccc1)/C(=C\c1ccc([N+](=O)[O-])cc1)NC(=O)c1ccco1
  A: 0.5	B: -15	C: 0	D: 0	E: -5	F: -14

> O=C(Cc1c(F)c(F)c(F)c(F)c1F)OC12CC3CC(C1)C(=O)C(C3)C2
  A: -0.4	B: ?	C: 7	D: 14	E: 4	F: -12

> CCCCc1ccc(NC(=O)N[C@H](C(=O)O)C(C)C)cc1
  A: -1.1	B: 8	C: -10	D: -2	E: 3	F: ?

> COc1ccc(/C=N/NC(=O)c2ccc(O)cc2O)cc1CSc1ccccn1
  A: 3.9	B: -29	C: 60	D: ?	E: -27	F: -1

> NS(=O)(=O)c1ccc(CCNc2nn3c(-c4ccc(F)c(Cl)c4)cnc3s2)cc1
  A: 0.2	B: .	C: 8	D: -10	E: -5	F: -13

> O=C(COc1ccccc1)Nc1nnc(-c2ccco2)o1
  A: -0.9	B: 14	C: 23	D: -7	E: ?	F: -11

> O=C1CCCc2c1ccc1ccccc21
  A: 0.8	B: .	C: 22	D: 13	E: 8	F: -18

> O=C(N/N=C/c1cc([N+](=O)[O-])ccc1O)C12CC3CC(CC(C3)C1)C2
  A: -0.6	B: 0	C: 17	D: -9	E: -5	F: -16

> CC1=C(C(=O)N(C(C)C)C(C)C)CC(CC(=O)NCc2ccco2)C(=O)N1CCCN1CCCC1=O (stereo not drawn)
  A: -0.5	B: .	C: .	D: 3	E: 3	F: 3

> CCn1c(=O)c2cc(S(=O)(=O)NC3CCCCC3)ccc2n(CC)c1=O
  A: -0.1	B: -17	C: 15	D: 4	E: -22	F: -3

> CC1=C(C(=O)Nc2ccccc2)C(c2cccs2)n2nnnc2N1 (stereo not drawn)
  A: 0.5	B: 2	C: 19	D: 0	E: -3	F: -8

> Cc1cc2nc(-c3ccc(SCC(=O)Nc4ccc(S(=O)(=O)N5CCCC5)cc4)nc3)[nH]c2cc1C
  A: -0.1	B: -14	C: -7	D: -23	E: -4	F: -5

> COc1cccc(CNC(=O)CCNS(=O)(=O)c2ccc(C)cc2)c1
  A: 11	B: ?	C: -4	D: 9	E: 4	F: -16

5 entries drawn at random from those above:
Abbreviations: A = TRPML1 ag; B = TRPV1 PAM; C = TRPML1 blocker; D = CtBP-E1A inh; E = Six1-Eya2 blk; F = D2 potentiator
> CC(NC(=O)C1CCCN(C(=O)N(C)C)C1)c1ccccc1 (stereo not drawn)
  A: -0.4	B: 3	C: 12	D: 5	E: 1	F: -4

> O=C(CCCN=C1NS(=O)(=O)c2ccccc21)OCc1ccc(F)cc1
  A: 0.1	B: -6	C: 2	D: -6	E: 9	F: 14

> O=C(N/N=C/c1cc([N+](=O)[O-])ccc1O)C12CC3CC(CC(C3)C1)C2
  A: -0.6	B: 0	C: 17	D: -9	E: -5	F: -16

> CC(C)S(=O)(=O)c1csc(C(=O)NNC(=O)Nc2ccccc2)c1Cl
  A: -0.7	B: -2	C: 0	D: 27	E: 4	F: -20

> CCOc1ccc(NC(=O)CSc2ncc(-c3ccc(F)cc3)n2Cc2ccco2)cc1
  A: .	B: -7	C: .	D: 0	E: -20	F: -10
